HNF4A DNA FP: change in binding of human HNF4 alpha to DNA. HNF4a-FITC DNA binding, fluorescence polarization, 1 h. activity change, % at 10 µM. hit rate 0.3% among 360,000. AID 1224865; in the data active = activity change above about 30%, passing the limit was not always enough;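 also: controls were the assay level and a saturating level of protein; the project sought stronger binding though the title names inhibitors; some compounds called inactive have numbers as strong as hits; positive values seem to mean higher polarization but the record does not say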
ALR H2O2 inh: blocks human ALR sulfhydryl oxidase activity; P55789; purified ALR, DTT oxidation, H2O2 HRP-luminol luminescence; inhibition, % (no concentration beside the values); hit rate 3.8% among 290,000; AID 485317;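 active = mean and each replicate at 75% or more; inconclusive = only one of the two met; inactive = neither met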;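 also: stock transfer was 7.5 nL into about 7.5 µL; 0% = neutral wells and 100% = wells with inactivated enzyme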
Target sequence (P55789 whole entry, looked up): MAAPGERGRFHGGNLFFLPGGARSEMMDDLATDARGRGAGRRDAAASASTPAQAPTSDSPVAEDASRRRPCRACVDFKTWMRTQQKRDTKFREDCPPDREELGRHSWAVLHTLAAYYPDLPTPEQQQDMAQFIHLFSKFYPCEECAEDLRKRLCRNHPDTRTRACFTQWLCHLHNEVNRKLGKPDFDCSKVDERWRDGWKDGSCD
FGF22 binding: FGF22 (human) thermal shift binding; Q9HCT0; recombinant FGF22 thermal shift, SYPRO orange fluorescence; percent of sucrose octasulfate shift, DMSO zero; calls only at 9.99 µM; hit rate 1.5% among 340,000;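 active = melting point raised past a set limit in the mean and every replicate; inconclusive = no clear call; three in four hits are not shown here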
Ecoli rRNA inh: inhibitors of bacterial rRNA selective over humanized ribosomes | hit rate 1.6% among 350,000 | E. coli WT GFP vs humanized-ribosome RFP mutants, fluorescence, 24 h; hits give low values; DMSO median 0, no signal -100 | GFP signal change (wild-type ribosome), % (test concentration not listed);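 active = significant combined selectivity score with lowered wild-type GFP, culture density cut under 30%, mutant RFP and density less affected; inactive = any of these conditions unmet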; also: one replicate is shown; some compounds called inactive have numbers as strong as hits
UCH37 inh: blocks the human deubiquitinase UCH37; Q9Y5K5; purified proteasome/UCH37, Ub-AMC cleavage fluorescence; inhibition, % (concentration not given with the values); hit rate 0.33% among 330,000;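 active = mean of two replicates above 20%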;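 also: 0% = compound-free wells with enzyme and 100% = wells lacking proteasome; stock transfer was 100 nL into about 20 µL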
Target sequence (Q9Y5K5 whole entry, looked up): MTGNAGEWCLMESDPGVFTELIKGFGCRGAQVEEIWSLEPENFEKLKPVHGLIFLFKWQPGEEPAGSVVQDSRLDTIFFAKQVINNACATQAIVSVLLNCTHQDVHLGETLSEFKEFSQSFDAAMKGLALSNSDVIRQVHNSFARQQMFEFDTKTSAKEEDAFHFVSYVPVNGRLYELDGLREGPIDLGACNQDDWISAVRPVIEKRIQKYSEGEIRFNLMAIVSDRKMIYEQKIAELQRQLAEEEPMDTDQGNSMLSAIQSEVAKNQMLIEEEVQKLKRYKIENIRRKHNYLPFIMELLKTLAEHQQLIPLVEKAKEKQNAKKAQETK
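Schedule: 30 min plus 25 min, room temperature / Material: human UCH37 within purified proteasomes / Technique: AMC fluorescence intensity at 355/460 nm / Buffer or medium: pH 7.4 Tris-HCl (50 mM) with ovalbumin, ATP-MgCl2, DTT / Controls: wells without proteasome as full block, compound-free enzyme plus substrate as uninhibited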
B2AR ag: human beta-2 adrenergic receptor agonism by FAP. Am2.2-beta2AR cells, FAP receptor internalization, flow cytometry; reference of the scale not given here. P07550. hit rate 0.43% among 340,000. response, % (test concentration not listed);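 active = response above a set limit, near 3 SD of response in nonfluorescent compounds, cut at about 42% in these data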;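 also: stock transfer was 100 nL into about 11 µL; a reference agonist was the positive control; negative values mostly stem from fluorescent compounds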
Target sequence (P07550 whole entry, looked up): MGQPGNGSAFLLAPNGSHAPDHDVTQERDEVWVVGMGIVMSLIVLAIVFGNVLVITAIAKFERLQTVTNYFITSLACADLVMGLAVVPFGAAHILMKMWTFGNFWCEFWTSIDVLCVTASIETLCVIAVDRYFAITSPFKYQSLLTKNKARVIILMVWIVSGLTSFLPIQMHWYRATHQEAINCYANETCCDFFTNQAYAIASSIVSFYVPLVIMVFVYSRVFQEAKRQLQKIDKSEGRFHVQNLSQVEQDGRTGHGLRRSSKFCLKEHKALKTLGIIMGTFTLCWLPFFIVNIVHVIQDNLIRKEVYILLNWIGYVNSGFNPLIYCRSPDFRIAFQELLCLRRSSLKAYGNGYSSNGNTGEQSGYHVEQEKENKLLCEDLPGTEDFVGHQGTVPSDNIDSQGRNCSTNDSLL
E coli growth: E. coli growth inhibition | Escherichia coli growth, OD600, 23 h; hits give low values | OD600 absorbance (concentration not given with the values) | hit rate 0.21% among 330,000;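 active = OD600 absorbance below the run mean of sample wells minus 3.6 SD, in any replicate, cut at about 0.56 in these data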;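 also: stock transfer was 300 nL into about 60 µL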
Ecoli rRNA inh OD600: second read-out of Ecoli rRNA inh, no call of its own (marks repeat the call); OD600 change, %; measured here: OD600 growth;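 optical density of the mix in the first replicate; 0 = DMSO median and -100 = no signal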
Ecoli rRNA inh RFP: recorded beside Ecoli rRNA inh, whose call it bears; RFP signal change, %; measured here: RFP humanized mutant strains;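 first replicate; 0 = DMSO median and -100 = no signal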
Active calls of the source: *; i = inactive; ? = inconclusive; . = not tested or not shown; & = joins results of further samples. Some of the compounds tested, so the mix of outcomes need not match the whole.

SMILES	HNF4A DNA FP	ALR H2O2 inh	FGF22 binding	Ecoli rRNA inh	Ecoli rRNA inh OD600	Ecoli rRNA inh RFP	UCH37 inh	B2AR ag	E coli growth
CC(C)CN(C(=O)COc1ccccc1C(=O)NCc1ccccc1)C1CCS(=O)(=O)C1 (stereo not drawn)	4.0	.	i	-1	10	0.1	.	.	.
C=CCNC(=O)NC(=S)c1ccccc1	1.5	?	.	.	.	.	2.7	10	0.67
COC(=O)C1=NN(c2ccc(Cl)cc2)C2C(=O)N(c3ccccc3OC)C(=O)C12 (stereo not drawn)	-0.5	-10	i	11	6	-3.6	-442	-3	0.69
Cn1ccc2c(-c3cccc4ccccc34)cc3c(c21)C1CCC3C1 (stereo not drawn)	-3.0	.	i	-5	-9	2.7	.	.	.
CCOC(=O)c1ccc(NC(=O)c2cc(OC)c(OC)c(OC)c2Br)cc1	-1.5	-17	i	-15	-17	-5.0	4.2	-1	0.7
Cc1cc(C)cc(N(CC(=O)NC2CCCC2)C(=O)c2csnn2)c1	0.5	0	i	.	.	.	2.9	9	0.6
COc1cc(O)c(C(CCN2CCCC(C)C2)c2ccc(N(C)C)cc2)c(OC)c1 (stereo not drawn)	1.8	98*	i	2	-6	-5.2	3.9	5	0.65
O=C(CN(CCc1ccccc1)S(=O)(=O)c1ccc(Cl)cc1)N/N=C/c1ccc2c(c1)OCO2	-1.5	-5	.	.	.	.	.	-4	.
O=C(CSc1nc2ccccc2[nH]1)N=Nc1c(O)[nH]c2ccccc12	-1.0	96*	.	.	.	.	7.5	-5	0.64
FC(F)(F)c1cc(Cl)c2nc(-c3ccccc3)c(Cc3cccc(Cl)c3)n2c1	5.4	.	i	-21	-26	3.1	.	.	.
Cc1ccc(N(C(=O)c2cc3ccccc3oc2=O)C2C=CS(=O)(=O)C2)cc1 (stereo not drawn)	1.6	-6	i	7	9	-0.3	2.2	5	0.65
CC(=O)Oc1ccc(C(=O)Nc2nnc(C)s2)cc1	-1.7	-13	.	.	.	.	2.7	1	0.64
CC(=O)N1CCC2(CC1)CC(=O)c1cc(OCC(=O)N3CCOCC3)ccc1O2	1.1	4	i	7	2	-5.6	i	5	0.7
COc1ccc(CNC(=O)CN(Cc2ccccc2)C(=O)CCC(=O)Nc2nccs2)cc1	2.0	.	i	9	11	-2.2	2.3	-2	0.66
CN(C(=O)c1ccno1)c1nnc(-c2cnccn2)s1	1.8	0	.	.	.	.	-2.9	3	0.75
O=C(Nc1cccc(S(=O)(=O)N2CCCCCC2)c1)c1ccc2ccccc2n1	-0.5	-3	i	-9	0	-0.4	-9.1	12	0.73
COc1ccc(C(=O)c2ccc(OC)c(OC)c2)cc1	-4.9	-3	.	.	.	.	6.7	9	0.7
Cc1[nH]c2c(ccc3ccccc32)c1C1C(CCN)C1(C)C (stereo not drawn)	5.6	?	.	.	.	.	-6.3	7	0.68
O=C(NC(c1ccc(Cl)cc1)c1cnccn1)C1CCN(CCCOc2ccccc2)CC1 (stereo not drawn)	1.9	.	i	5	19	-0.5	.	.	.
Cc1sc2nc(SCC(=O)NCc3ccco3)n(-c3ccccc3)c(=O)c2c1C	1.2	-4	.	6	6	-4.8	-15	-2	0.74
COC(=O)c1cc(NC(=O)c2c(Cl)cnn2C)cc(C(=O)OC)c1	0.1	-2	i	9	10	1.7	7.2	4	0.68
O=C(NC(=S)Nc1nc2c(s1)CCCC2)c1ccc(C(=O)c2ccccc2)cc1	2.1	-2	.	.	.	.	7.5	-1	0.77
Cc1ccc(-c2noc(CCC(=O)Nc3ccccc3N3CCN(C)CC3)n2)cc1	-1.8	-3	.	.	.	.	1.4	6	0.63
CCOc1ccc(OCCNC(=O)c2cc(C3CC3)nc3c2cnn3C(C)C)cc1	3.0	.	i	-15	-35	-1.8	1.0	14	0.66
COc1ccc(C(=O)NNC(=O)c2cnccn2)cc1[N+](=O)[O-]	2.1	-2	.	.	.	.	7.5	16	0.7

Limited to E coli growth and B2AR ag, for 2 of the compounds above:
SMILES,E coli growth,B2AR ag
Cc1cc(C)cc(N(CC(=O)NC2CCCC2)C(=O)c2csnn2)c1,0.6,9
O=C(NC(=S)Nc1nc2c(s1)CCCC2)c1ccc(C(=O)c2ccccc2)cc1,0.77,-1

Sorted by formula weight (smallest number first): three of the compounds above.
SMILES	HNF4A DNA FP	ALR H2O2 inh	FGF22 binding	Ecoli rRNA inh	Ecoli rRNA inh OD600	Ecoli rRNA inh RFP	UCH37 inh	B2AR ag	E coli growth
COC(=O)c1cc(NC(=O)c2c(Cl)cnn2C)cc(C(=O)OC)c1	0.1	-2	i	9	10	1.7	7.2	4	0.68
O=C(Nc1cccc(S(=O)(=O)N2CCCCCC2)c1)c1ccc2ccccc2n1	-0.5	-3	i	-9	0	-0.4	-9.1	12	0.73
O=C(NC(c1ccc(Cl)cc1)c1cnccn1)C1CCN(CCCOc2ccccc2)CC1 (stereo not drawn)	1.9	.	i	5	19	-0.5	.	.	.

Carrying on:
SMILES	HNF4A DNA FP	ALR H2O2 inh	FGF22 binding	Ecoli rRNA inh	Ecoli rRNA inh OD600	Ecoli rRNA inh RFP	UCH37 inh	B2AR ag	E coli growth
COc1cccc(-n2nnc3c(=O)n(CC(=O)OCc4ccccc4)cnc32)c1	0.6	-2	.	.	.	.	1.0	-11	0.66
CC(=O)Nc1ccc(/C=N/NC(=O)c2cc(-c3ccco3)nc3ccccc23)cc1	1.6	-6	i	-6	6	1.0	.	-7	.
COc1ccc(-c2cc(C)no2)cc1S(=O)(=O)N1CCN(c2ccccn2)CC1	3.5	1	i	-1	-16	14	1.3	-2	0.61
Brc1ccc(-c2cn3ccccc3n2)s1	2.6	-9	.	.	.	.	3.5	-13	0.74
COc1ccc(C=CC(C)=NNC(=O)c2ccncc2)cc1	3.0	.	i	.	.	.	17	-5	0.66
Cc1cc(OCC(=O)OCC(=O)NCc2ccc3c(c2)OCO3)ccc1Cl	5.6	-2	i	.	.	.	3.4	-8	0.69
Cn1cnc(S(=O)(=O)Nc2ccc(Cl)c(C(F)(F)F)c2)c1	-3.1	-5	i	1	12	-1.6	1.1	12	0.6
Cc1ccc2sc(NNC(=O)C3COc4ccccc4O3)nc2c1C (stereo not drawn)	-0.1	47	i	-57	-76	-17	7.4	4	0.74
Cn1cc(Br)c(C(=O)N2CCCCCC2)n1	-0.3	.	i	13	17	-1.4	4.5	0	0.71
CC(C)(C)OC(=O)CN1C(=O)NC2(CCCc3ccccc32)C1=O (stereo not drawn)	-2.2	-1	i	9	4	0.6	2.6	-2	0.58
COc1ccnc(Oc2ccc(F)cc2)c1C#N	0.6	5	i	9	-5	-1.4	2.7	1	0.65
CCN1C(=O)C(CC(=O)Nc2ccc(Cl)cc2)N(NC(=O)c2ccncc2)C1=S (stereo not drawn)	3.4	6	i	.	.	.	2.1	9	0.62
CCCCSc1ccc2nc(-c3ccc(C#N)cc3)cn2c1	-1.1	2	.	.	.	.	-12	0	0.75
COc1ccc(CNC(=O)CCn2c(C)csc2=O)cc1	2.7	-1	i	-2	0	-0.8	-0.4	-5	0.67
O=C(NC1CC2CCCC(C1)N2C(=O)Nc1ccc(F)cc1)c1ccccc1 (stereo not drawn)	0.4	.	i	3	1	-2.3	3.6	-5	0.69
C=CCOc1ccc(/C=C/C(=O)OCc2csc(CC(=O)Nc3ccccc3C)n2)cc1	2.8	.	i	.	.	.	-1.4	2	0.69
CC(=O)c1ccc(NC(=O)/C(=C\c2ccco2)NC(=O)c2ccco2)cc1	4.3	5	i	31	-2	2.2	.	-13	.
CS(=O)(=O)c1ccc(C(=O)OCC(=O)c2ccc(Cl)s2)cc1	-2.4	-12	.	3	-3	1.6	4.1	-9	0.65
O=C(Nc1ccc(Cl)cn1)Nc1cccs1	2.0	.	.	.	.	.	-0.7	-3	0.65
Cn1cc(C(=O)C(F)(F)F)c2ccccc21	-0.1	-5	.	.	.	.	3.7	3	0.69
CC(=O)NC(NC(C)=O)c1ccc(Br)cc1	-1.9	-4	i	14	8	-2.6	0.9	-7	0.65
CCOC(=O)C1(C)CCCN(C(=O)c2ccc(F)cc2Cl)C1 (stereo not drawn)	2.8	.	i	2	16	-0.6	.	.	.
COc1cccc(C#Cc2ccc3c(c2)O[C@@H](CN(C)C(=O)c2ccccn2)[C@@H](C)CN([C@H](C)CO)S3(=O)=O)c1	0.6	.	i	-11&-1	-15&-7	0.4&4.6	.	.	.
O=C(CSc1ccc(-c2ccc(F)cc2)nn1)N1CCN(c2ccccc2)CC1	-1.2	-11	.	.	.	.	-0.2	1	0.73
COc1ccccc1CNC(=O)c1ccc2c(c1)OCO2	0.2	-4	i	3	12	0.4	0.2	7	0.61

(more compounds)
SMILES	HNF4A DNA FP	ALR H2O2 inh	FGF22 binding	Ecoli rRNA inh	Ecoli rRNA inh OD600	Ecoli rRNA inh RFP	UCH37 inh	B2AR ag	E coli growth
S=c1[nH]nc(COc2ccccc2)n1-c1ccc(Cl)cc1	-2.8	.	i	-11	-16	-2.7	.	-5	.
O=C(c1cc(COc2ccc(F)cc2Cl)on1)N(Cc1ccncc1)CC1CCCO1 (stereo not drawn)	-7.3	-3	i	-16	-8	2.7	0.1	-15	0.73
CC(=O)Nc1ccc(S(=O)(=O)NCc2cc(=O)n(C)c(=O)n2C)cc1	-2.3	8	i	8	10	-0.7	2.6	4	0.71
c1nnc(NCNc2nncs2)s1	3.3	.	i	24	20	1.2	.	.	.
COc1ccc(N(C(=O)Cn2nnc(-c3ccc(C)o3)n2)C(C(=O)NC2CCCC2)c2ccncc2)cc1 (stereo not drawn)	0.2	-2	i	13	8	0.9	0.8	-1	0.68
CC(NC(=O)COc1ccc(/C=N/NS(=O)(=O)c2ccccc2)cc1)c1ccccc1 (stereo not drawn)	-2.2	-2	.	.	.	.	.	4	.
CCCCCCCCN1C(=O)[C@H](CC(=O)NCCCOCCCC)C[C@@]2(C(=O)OCC)CCCC=C12	-0.5	.	i	18	15	2.5	.	.	.
CN(C)C(CNc1ncnc2sc3c(c12)CCCCC3)c1ccco1 (stereo not drawn)	-0.1	55	i	-38*	-6.9*	6.8*	3.4	-1	0.7
Cc1ccc(CSc2ncnc3c2cnn3-c2ccccc2)cc1	2.0	-4	.	.	.	.	-2.1	-2	0.72
CCOc1ncccc1C(=O)Nc1ccc(S(=O)(=O)Nc2nccs2)cc1	-0.1	2	i	-18	-16	1.5	1.6	1	0.64
CN1CCN(C(=O)/C(=C/c2ccccc2Cl)NC(=O)c2ccccc2)CC1	-0.2	.	i	7	8	-0.8	5.3	-2	0.67
CCOC(=O)N1CCN(C(=S)NC2CCCCC2)CC1	-5.5	.	i	-2	6	-1.6	5.8	-2	0.71
COc1ccc(-c2csc3nc(C)n(-n4cccc4)c(=O)c23)cc1	-1.0	0	.	.	.	.	0.8	8	0.69
COc1cccc(C2CC(c3ccc(F)cc3)Nc3nc(N)nn32)c1 (stereo not drawn)	3.8	-5	i	4	-4	0.2	0.5	-1	0.74
CCn1nc(C(=O)Nc2nc3ccc(C)cc3s2)c2ccccc2c1=O	-3.4	-1	i	22	19	3.7	-0.9	10	0.73
Cc1cc(=O)[nH]c(SCC(=O)Nc2cccc3ccccc23)c1C#N	7.8	-36	i	.	.	.	4.3	-3	0.7
CCCCn1c(N)c(N(CC(C)C)C(=O)C2CC(=O)N(Cc3ccccc3)C2)c(=O)[nH]c1=O (stereo not drawn)	-2.5	1	i	2	3	-3.0	5.8	-1	0.68
CCOc1ccc(NS(=O)(=O)c2ccc3[nH]c(=O)cc(C(=O)O)c3c2)cc1	-2.3	-5	.	4	18	-3.6	2.3	2	0.65
C=CCN1C(=O)C(CC(=O)O)SC1=Nc1ccc(N=Nc2ccccc2)cc1 (stereo not drawn)	-0.8	8	i	-10	-4	0.4	15	17	0.67

Screening results from PubChem BioAssay.
